FGF22 binding – binders of human FGF22 protein, primary screen, FGF22 synaptogenesis inhibitor project, biophysical, thermal shift, single point | actives 1.5% (n = 340,000) | Fibroblast growth factor 22 (Homo sapiens), Q9HCT0 | recombinant FGF22 thermal shift, SYPRO orange fluorescence; percent of sucrose octasulfate shift, DMSO zero | AID 651658, 2012 | calls only at 9.99 µM;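 active means melting point raised past a set limit in the mean and every replicate; three in four hits are not shown here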
Target sequence (Q9HCT0 whole entry, looked up): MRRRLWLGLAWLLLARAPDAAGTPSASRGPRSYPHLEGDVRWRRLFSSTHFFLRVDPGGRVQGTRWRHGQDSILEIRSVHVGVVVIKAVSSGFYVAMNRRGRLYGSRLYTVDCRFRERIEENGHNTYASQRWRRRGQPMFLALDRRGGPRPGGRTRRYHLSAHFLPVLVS
AF4-AF9 inh – inhibitors of AF4 peptide binding to AF9, primary screen, biochemical, AlphaScreen, biotin-AF4 peptide, FLAG-AF9, single point; inhibition, % at 10 µM; Protein AF-9 (Homo sapiens), P42568; AID 651704, 2012; actives 0.47% (n = 350,000);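 active means every replicate reaching a set inhibition limit, whatever the replicate mean, cut at about 25% in these data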;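 further: 0% = plate neutral control median and 100% = total signal loss; the record names both 10 and 1 µM as test concentration; the first replicate is given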
Target sequence (P42568 whole entry, looked up): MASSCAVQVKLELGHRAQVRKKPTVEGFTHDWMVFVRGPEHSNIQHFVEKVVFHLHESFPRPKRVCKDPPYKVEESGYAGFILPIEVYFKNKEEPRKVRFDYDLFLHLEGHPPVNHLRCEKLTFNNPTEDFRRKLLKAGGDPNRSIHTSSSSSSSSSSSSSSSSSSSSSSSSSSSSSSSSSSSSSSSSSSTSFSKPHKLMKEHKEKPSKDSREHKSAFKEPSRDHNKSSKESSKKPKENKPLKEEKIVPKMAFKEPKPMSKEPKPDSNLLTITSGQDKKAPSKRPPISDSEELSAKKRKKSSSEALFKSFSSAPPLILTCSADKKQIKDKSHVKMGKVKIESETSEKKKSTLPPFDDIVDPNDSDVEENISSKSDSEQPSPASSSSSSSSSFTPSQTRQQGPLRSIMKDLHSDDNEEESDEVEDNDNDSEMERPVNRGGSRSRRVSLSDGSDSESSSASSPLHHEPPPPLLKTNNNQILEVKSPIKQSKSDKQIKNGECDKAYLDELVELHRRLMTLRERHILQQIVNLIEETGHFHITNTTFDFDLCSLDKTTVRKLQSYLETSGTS
The depositor's hits bear a star; i = inactive. Only part of the results is shown (hit frequency here may not be typical).

SMILES	FGF22 binding	AF4-AF9 inh
Cc1cccc(S(=O)(=O)N2CCCCN3[C@H](CO)[C@@H](c4ccc(C#C[C@H](C)O)cc4)[C@@H]3C2)c1	i	-1.4
COc1ccc(CNC(=O)C[C@@H]2C[C@@H]3c4cc(NC(=O)C5CCC5)ccc4O[C@@H]3[C@H](CO)O2)cc1	i	-23
Cc1ccc(S(=O)(=O)Nc2ccc3c(c2)CC(=O)N([C@@H](C)CO)C[C@@H](C)[C@@H](CN(C)S(=O)(=O)c2ccc(C)cc2)O3)cc1	i	0.1
C[C@@H]1CN([C@H](C)CO)C(=O)Cc2cc(N(C)C)ccc2O[C@@H]1CN(C)C(=O)Nc1cccc2ccccc12	i	2.3
C[C@H]1CN([C@@H](C)CO)C(=O)c2cc(NS(=O)(=O)c3ccc(Cl)cc3)ccc2O[C@@H]1CN(C)Cc1ccc2c(c1)OCO2	i	3.1
C[C@H]1CN([C@@H](C)CO)C(=O)c2cccc(NC(=O)c3nc4ccccc4s3)c2O[C@@H]1CN(C)CC1CCCCC1	i	6.3
CC(=O)N1CCCCN2[C@@H](CO)[C@@H](c3ccc(-c4ccccc4)cc3)[C@@H]2C1	i	2.8
COc1ccc2c3c([nH]c2c1)[C@H](CO)N(Cc1cccc(F)c1)CC31CN(C(C)=O)C1	i	-0.4
C[C@@H]1CN([C@H](C)CO)C(=O)c2cc(NS(=O)(=O)c3cn(C)cn3)ccc2O[C@@H]1CN(C)C(=O)Nc1ccccc1	i	-2.1
C[C@@H]1CN([C@@H](C)CO)C(=O)c2cc(C#C[C@@H](C)O)cnc2O[C@@H]1CN(C)C(=O)CN1CCOCC1	i	-3.8
C[C@@H]1CCCCO[C@H](CN(C)Cc2ccc3c(c2)OCO3)[C@@H](C)CN([C@H](C)CO)C(=O)c2cc(N(C)C)ccc2O1	i	11
COCC(=O)N1[C@@H](C#N)[C@H](c2ccc(-c3cccnc3)cc2)[C@@H]1CO	i	1.2
COCc1[nH]nc2c1C(c1ccc(Br)cc1)N(c1ccc(OC)cc1)C2=O (configuration not stated)	i	1.1
COCC#Cc1cnc2c(c1)C(=O)N([C@@H](C)CO)C[C@H](C)[C@H](CN(C)C(=O)NC1CCCC1)O2	i	-13
CN1C(=O)c2cc(NC(=O)c3cccc(F)c3)ccc2OC[C@@H]2O[C@H](CC(=O)NCc3ccccc3Cl)CC[C@H]21	i	-3.2
O=C(NCc1ccccc1)[C@H]1CCCN1C(=O)[C@H]1CCCN1C(=O)N1CCCCC1	i	-3.7
C[C@@H]1CN([C@H](C)CO)C(=O)Cc2cc(NC(=O)Nc3ccccc3)ccc2O[C@@H]1CN(C)CC1CCCCC1	i	4.2
C[C@@H]1CCCCO[C@H](CN(C)C(=O)Nc2ccc(F)cc2)[C@@H](C)CN([C@@H](C)CO)C(=O)c2cc(NC(=O)C3CCCCC3)ccc2O1	i	-0.3
CC(C)NC(=O)N[C@H]1CC[C@H](CC(=O)N2CCCCC2)O[C@@H]1CO	i	-1.7
CN(C)c1ccc2c(c1)[C@H]1C[C@H](CC(=O)NCC3CC3)O[C@@H](CO)[C@H]1O2	i	-16
Cc1ccc(S(=O)(=O)Nc2ccc3c(c2)C(=O)N([C@H](C)CO)C[C@H](C)[C@@H](CN(C)CC2CCCCC2)O3)cc1	i	-3.0
O=C(C[C@H]1CC[C@@H]2[C@H](COC[C@@H](O)CN2Cc2cccc(F)c2)O1)NCCc1ccncc1	i	-1.7
CCC(=O)Nc1ccc2c(c1)C(=O)N(C)[C@@H]1CC[C@@H](CC(=O)NCc3ccccc3Cl)O[C@@H]1CO2	i	0.4
CCC(=O)N(C)C[C@@H]1Oc2cc(-c3ccc(F)cc3)ccc2S(=O)(=O)N([C@H](C)CO)C[C@@H]1C	i	1.9
O=S1(=O)N[C@H](c2ccccc2)COc2cc(Br)ccc21	i	-0.3

Two of the compounds above, with each value named.
> C[C@@H]1CN([C@@H](C)CO)C(=O)c2cc(C#C[C@@H](C)O)cnc2O[C@@H]1CN(C)C(=O)CN1CCOCC1
  FGF22 binding: i
  AF4-AF9 inh: -3.8
> CCC(=O)N(C)C[C@@H]1Oc2cc(-c3ccc(F)cc3)ccc2S(=O)(=O)N([C@H](C)CO)C[C@@H]1C
  FGF22 binding: i
  AF4-AF9 inh: 1.9

Carrying on:
SMILES	FGF22 binding	AF4-AF9 inh
C[C@@H]1CN([C@@H](C)CO)S(=O)(=O)c2ccc(C#CC3CCCC3)cc2O[C@H]1CN(C)C(=O)Nc1cc(F)ccc1F	i	3.8
C[C@H]1CCCCO[C@H](CN(C)C(=O)Nc2ccccc2)[C@@H](C)CN([C@@H](C)CO)C(=O)c2cc(NS(C)(=O)=O)ccc2O1	i	-1.4
CN1C(=O)c2cc(NC(=O)c3ccccc3)ccc2OC[C@@H]2O[C@H](CC(=O)NCC3CC3)CC[C@H]21	i	-1.2
O=C(NCC[C@@H]1CC[C@@H](NS(=O)(=O)c2cccc(F)c2)[C@H](CO)O1)C1CCC1	i	-5.5
C[C@H](CO)N1C[C@H](C)[C@@H](CN(C)Cc2ccncc2)OCCCC[C@H](C)Oc2ccc(NC(=O)Nc3ccc4c(c3)OCO4)cc2C1=O	i	-0.2
COCC(=O)Nc1ccc2c(c1)OC[C@H](C)N(C(=O)Cc1cccnc1)C[C@H](C)[C@H](OC)CN(C)C2=O	i	-0.9
C[C@@H]1CCCCO[C@H](CN(C)C(=O)Nc2ccc3c(c2)OCO3)[C@@H](C)CN([C@@H](C)CO)C(=O)c2cc(NS(=O)(=O)c3ccccc3)ccc2O1	i	12
C[C@H]1CCCCO[C@@H](CN(C)C(=O)c2ccccc2)[C@@H](C)CN([C@@H](C)CO)C(=O)c2cc(NC(=O)Cc3ccccc3)ccc2O1	i	-2.7
Cc1cc(C(=O)Nc2cccc3c2O[C@@H](CN(C)S(=O)(=O)c2ccc(Cl)cc2)[C@@H](C)CN([C@@H](C)CO)C3=O)n(C)n1	i	1.2
O=C(c1ccccn1)N1C[C@@H]2[C@H](c3ccccc31)[C@@H](CO)N2C(=O)C1CCCC1	i	-1.0
CO[C@@H]1CN(C)C(=O)c2cc(NC(=O)c3ccc4c(c3)OCO4)ccc2OC[C@@H](C)N(CC2CC2)C[C@H]1C	i	-1.1
C[C@@H]1CN([C@H](C)CO)C(=O)c2cc(NS(C)(=O)=O)ccc2O[C@H]1CN(C)C(=O)Nc1ccc2c(c1)OCO2	i	-5.6
COc1ccc(C#Cc2ccc([C@H]3[C@@H](CO)N4CCCCN(C(=O)c5ccncc5)C[C@@H]34)cc2)cc1	i	-3.1
COCCNC(=O)C[C@H]1CC[C@@H]2[C@@H](COc3ccc(NC(=O)C4CCOCC4)cc3C(=O)N2C)O1	i	-0.9
Cc1ccc(S(=O)(=O)N[C@H]2CC[C@H](CCn3cc(-c4cccnc4)nn3)O[C@@H]2CO)cc1	i	-27
CCC(=O)N1C[C@H](C)[C@H](OC)CN(C)C(=O)c2ccc(NC(=O)Nc3cccc(F)c3)cc2OC[C@@H]1C	i	2.9
C[C@H]1CN([C@@H](C)CO)C(=O)Cc2cc(NS(=O)(=O)c3ccc(F)cc3)ccc2O[C@H]1CN(C)S(=O)(=O)c1cccs1	i	0.9
CO[C@@H]1CN(C)C(=O)c2cc(NC(=O)Nc3cc(F)ccc3F)ccc2OC[C@@H](C)N(C)C[C@@H]1C	i	2.3
CC(=O)N(C)C[C@H]1OCc2ccccc2-c2c(n(C)c3ccccc23)C(=O)N([C@H](C)CO)C[C@@H]1C	i	-1.9
C[C@@H]1CCCCO[C@@H](CN(C)Cc2ccncc2)[C@H](C)CN([C@H](C)CO)C(=O)c2cc(NC(=O)Nc3ccc4c(c3)OCO4)ccc2O1	i	9.2
C[C@@H]1CN([C@H](C)CO)C(=O)c2cc(C#CCN(C)C)cnc2O[C@H]1CN(C)S(C)(=O)=O	i	-3.4
COCC(=O)N1C[C@H]2[C@@H](c3ccccc31)[C@H](CO)N2C(=O)c1ccccc1F	i	-0.9
O=C(c1ccncc1)N1CC2(C1)[C@H](c1ccccc1)[C@@H](CO)N2Cc1ccccn1	i	0.0
COc1cccc(C#Cc2ccc3c(c2)O[C@H](CN(C)C)[C@H](C)CN([C@H](C)CO)S3(=O)=O)c1	i	11
COc1ccc(S(=O)(=O)Nc2ccc3c(c2)C(=O)N([C@H](C)CO)C[C@H](C)[C@H](CN(C)Cc2ccc(C(=O)O)cc2)OCCCC[C@@H](C)O3)cc1	i	-1.5

By substructure: the entries above containing a Cl atom (4)
SMILES	FGF22 binding	AF4-AF9 inh
C[C@H]1CN([C@@H](C)CO)C(=O)c2cc(NS(=O)(=O)c3ccc(Cl)cc3)ccc2O[C@@H]1CN(C)Cc1ccc2c(c1)OCO2	i	3.1
CN1C(=O)c2cc(NC(=O)c3cccc(F)c3)ccc2OC[C@@H]2O[C@H](CC(=O)NCc3ccccc3Cl)CC[C@H]21	i	-3.2
CCC(=O)Nc1ccc2c(c1)C(=O)N(C)[C@@H]1CC[C@@H](CC(=O)NCc3ccccc3Cl)O[C@@H]1CO2	i	0.4
Cc1cc(C(=O)Nc2cccc3c2O[C@@H](CN(C)S(=O)(=O)c2ccc(Cl)cc2)[C@@H](C)CN([C@@H](C)CO)C3=O)n(C)n1	i	1.2

(cont.)
SMILES	FGF22 binding	AF4-AF9 inh
N#C[C@@H]1[C@H](c2ccc(-c3ccccc3F)cc2)[C@@H](CO)N1C(=O)C1CC1	i	-0.5
O=C(C[C@H]1CC[C@@H](NC(=O)Nc2cc(F)ccc2F)[C@@H](CO)O1)NCc1ccccn1	i	1.1
C[C@@H]1CN([C@H](C)CO)S(=O)(=O)c2ccc(C#Cc3ccccn3)cc2O[C@@H]1CN(C)Cc1ccccc1	i	1.8
CO[C@H]1CN(C)C(=O)c2cc(NC(=O)Cc3ccccc3)ccc2OC[C@H](C)N(C)C[C@H]1C	i	-0.8
Cc1cccc(-c2ccc([C@@H]3[C@H]4CN(S(=O)(=O)c5cccs5)CCCCN4[C@H]3CO)cc2)c1	i	-5.7
COc1ccccc1CN1[C@@H]2CN(C(=O)c3ccncc3)c3ccccc3[C@@H]2[C@@H]1CO	i	-1.9
COc1ccc2c3c([nH]c2c1)[C@H](CO)N(Cc1cccc(F)c1)CC31CN(Cc2ccccn2)C1	i	13
COc1ccc2c3c(n(C)c2c1)[C@H](CO)N(C(=O)C1CC1)CC31CCN(C(=O)C2CCOCC2)CC1	i	-0.6
C[C@H](CO)N1C[C@H](C)[C@@H](CN(C)Cc2ccc(Cl)c(Cl)c2)Oc2ccc(NC(=O)Nc3ccc(F)cc3)cc2C1=O	i	0.1
C[C@@H]1CN([C@H](C)CO)C(=O)c2cc(/C=C/c3ccccc3)cnc2O[C@@H]1CN(C)Cc1ccccc1	i	11
C[C@H]1CN([C@@H](C)CO)C(=O)c2cc(NC(=O)Nc3cccc4ccccc34)ccc2O[C@@H]1CN(C)S(=O)(=O)c1cn(C)cn1	i	-0.4
CCS(=O)(=O)NCC[C@H]1CC[C@H](NS(=O)(=O)c2cccc(Cl)c2)[C@H](CO)O1	i	-3.7
Cc1ccc(S(=O)(=O)Nc2ccc3c(c2)CC(=O)N([C@H](C)CO)C[C@H](C)[C@@H](CN(C)Cc2ccncc2)O3)cc1	i	10
C[C@@H]1CCCCO[C@H](CN(C)S(=O)(=O)c2ccc(F)cc2)[C@H](C)CN([C@@H](C)CO)C(=O)c2cc(NC(=O)Nc3cccc4ccccc34)ccc2O1	i	0.5
COc1ccc(NC(=O)N(C)C[C@H]2Oc3ccc(NC(=O)Nc4ccc(F)cc4)cc3CC(=O)N([C@@H](C)CO)C[C@H]2C)cc1	i	-0.1
CCCN(C)C[C@@H]1OCCCC[C@H](C)Oc2ccc(NC(=O)Nc3ccc(C(F)(F)F)cc3)cc2C(=O)N([C@H](C)CO)C[C@@H]1C	i	-3.3
C[C@H]1CN([C@@H](C)CO)S(=O)(=O)c2ccc(C3=CCCC3)cc2O[C@@H]1CN(C)Cc1cccc(C(=O)O)c1	i	-8.5
COc1ccc(-c2cnc3c(c2)C(=O)N([C@H](C)CO)C[C@@H](C)[C@@H](CN(C)C(=O)C2CCOCC2)O3)cc1	i	-3.1
Cc1ccc(-c2ccc3c(c2)O[C@@H](CN(C)CC2CCCC2)[C@H](C)CN([C@@H](C)CO)S3(=O)=O)cc1	i	3.5
CN(C)C(=O)c1cccc(-c2ccc([C@@H]3[C@@H](CO)N4C(=O)CN(C(=O)Cc5ccccc5)C[C@H]34)cc2)c1	i	0.3
C[C@@H]1CN([C@@H](C)CO)C(=O)c2cc(NC(=O)c3ccncc3)ccc2O[C@@H](C)CCCCO[C@@H]1CN(C)S(=O)(=O)c1cccs1	i	-0.2
Cc1noc(C)c1S(=O)(=O)N(C)C[C@@H]1OCCCC[C@H](C)Oc2ccc(NC(=O)NC3CCCCC3)cc2C(=O)N([C@H](C)CO)C[C@@H]1C	i	1.6
C[C@H]1CCCCO[C@H](CN(C)C(=O)Nc2cccc3ccccc23)[C@@H](C)CN([C@@H](C)CO)C(=O)c2cc(NS(=O)(=O)c3ccc(Cl)cc3)ccc2O1	i	-5.5
Cc1noc(C)c1S(=O)(=O)N(C)C[C@H]1Oc2ccc(NC(=O)CCCN(C)C)cc2C(=O)N([C@H](C)CO)C[C@H]1C	i	-0.3
O=C(Nc1ccccc1F)N[C@H]1CC[C@@H](CC(=O)N2CCCCC2)O[C@H]1CO	i	-3.1
C[C@H](O)C#Cc1ccc2c(c1)O[C@@H](CN(C)C(=O)C1CCC1)[C@H](C)CN([C@H](C)CO)S2(=O)=O	i	-2.2
